Screens from PubChem.
AmpC nodet inh: AmpC beta-lactamase inhibition, detergent-free assay. AID 585. P00811. actives 1.8% (n = 71,000). Potency, µM (highest dose often 28.7 µM), without a hit: top-dose activity change, negative = inhibition. AmpC nitrocefin hydrolysis, absorbance 480 nm, no detergent; potencies from a single point are estimates; active = falling curve, for most hits resting on a single point; inconclusive = weak or doubtful change; inactive = flat or rising curve; also: % of control where 0% means no effect; about half of the hits show no inhibition at the top dose; a quarter of the inactives give rising signals
Target sequence (P00811 whole entry, looked up): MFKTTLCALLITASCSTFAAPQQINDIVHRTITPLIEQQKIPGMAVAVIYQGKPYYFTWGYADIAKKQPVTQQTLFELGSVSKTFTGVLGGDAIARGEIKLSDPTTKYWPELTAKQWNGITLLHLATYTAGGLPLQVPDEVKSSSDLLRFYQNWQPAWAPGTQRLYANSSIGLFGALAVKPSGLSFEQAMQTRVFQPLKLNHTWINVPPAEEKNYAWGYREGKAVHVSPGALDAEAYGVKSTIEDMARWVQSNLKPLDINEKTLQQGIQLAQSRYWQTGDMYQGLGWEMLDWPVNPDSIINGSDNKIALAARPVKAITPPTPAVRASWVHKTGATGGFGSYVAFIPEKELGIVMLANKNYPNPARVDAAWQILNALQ
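Enzyme, pH 7.0 phosphate. Compound titrations were pre-incubated with AmpC for 15 min at room temperature before nitrocefin (stock 800 uM) addition; product formation was recorded at 480 nm every 20 s for 4 min.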
* hit, by the source's call; ? = inconclusive; [ ] = dose if it differs, or a comment. Potency is read from the fitted curve at half-maximal effect.

SMILES | AmpC nodet inh
O=C(C1Cc2ccccc2CN1S(=O)(=O)c1ccc(F)cc1)N1CCCCCC1 (stereo unspecified) | 39%
O=C(N1CCN(CCO)CC1)N1c2ccccc2C=Cc2ccccc21 | 70%
CC(=O)Nc1ccc(S(=O)(=O)N(C)CC(=O)Nc2ccccc2N2CCOCC2)cc1 | 30%
COc1cc2c(cc1OC)-c1cc(N3CCCc4ccccc43)nc(=O)n1CC2 | 127%
CC1=C(C(N)=O)C(c2ccccc2)n2nc(-c3cccc(C)c3)nc2N1 (stereo unspecified) | 4%
Cc1ccc(-n2nc(C(=O)NCc3ccco3)c3c4ccccc4n(C)c3c2=O)cc1 | 28%
CSc1nnc(Cn2c(=O)sc3ccccc32)n1-c1ccccc1 | 32%
ClCCCl | -13%
CCOc1ccccc1C1CC(=O)NC(SCC)=C1C#N (stereo unspecified) | 8%
CC(C)[C@H](NC(=O)NCCc1ccc(F)cc1)C(=O)O | 14%
CCOc1ccc(NC(=O)C2CC(=O)N(C(C)C)C2)cc1 (stereo unspecified) | -2%
O=C1CC(C(=O)Nc2ccccc2)C2(CCCC2)O1 (stereo unspecified) | 7%
CC(C)(C)C(=O)OCOC(=O)[C@@H]1N2C(=O)[C@@H](NC(=O)[C@H](N)c3ccccc3)[C@H]2SC1(C)C | ?
COc1ccc(S(=O)(=O)N(CCN2CCOCC2)Cc2cc(OC)ccc2OC)cc1 | 108%
COCCn1c(=O)c(-c2ccccc2)nc2cnc(Oc3cccc(Cl)c3)nc21 | 52%
CCOc1ccc(CCNC(=O)C2CCN(c3nn4c(=O)cc(C)nc4s3)CC2)cc1 | 71%
CN(C)CCCN1c2ccccc2CCc2ccccc21 | 20%[12.8 µM]
COC(=O)c1ccccc1OC(=O)c1ccc(Br)o1 | 0%
Cc1cc(CNC(=O)Cc2c(F)cccc2Cl)nn1C | -3%
COC(=O)c1c(C)nc(C)c2c(=O)oc3ccccc3c12 | -3%
CN(C)C(=O)Cl | -11%
CCCNC(=O)NC(=O)CSc1ncc(C(F)(F)F)cc1Cl | -13%
Nc1c(C(=O)NCC2CCCO2)c2nc3ccccc3nc2n1-c1ccccc1 (stereo unspecified) | 159%
Cc1c([C@@H](C)[C@H]2NC[C@H](C)C[C@@H]2O)ccc2c1C[C@@H]1[C@H]2CC=C2C[C@@H](O)CC[C@@]21C | -2%[5.75 µM]
CCOc1ccc(N(CC(=O)NCc2ccco2)S(=O)(=O)c2ccc(OC)c(OC)c2)cc1 | 82%
c1ccc(-c2nn3c(-c4ccncc4)nnc3s2)nc1 | 12%
COc1ccc(Cl)cc1CSc1n[nH]c(C)n1 | 1%
O=C(CN1C(=O)c2ccccc2S1(=O)=O)N1CCN(c2cccc(Cl)c2)CC1 | 56%
CCOc1ccccc1NC(=O)C1CCCN(S(=O)(=O)c2cccc3cccnc23)C1 (stereo unspecified) | 64%
COC(=O)CCc1c(C)c(C(=O)c2ccco2)c2ccccn12 | 11%
CN(C)c1ccc(N=NS(=O)(=O)O)cc1 | -9%
CCOC(=O)N1CCN(C(=O)C(NS(=O)(=O)c2cccc3nsnc23)c2ccccc2)CC1 (stereo unspecified) | 35%
CCCn1c(=O)c2ccccc2n2c(SCC(=O)/C(C#N)=C(\C)N)nnc12 | -13%
CCN(CC)C(=O)CSc1nc(O)cc(=O)n1-c1ccccc1OC | 36%
COc1ccc(CCNC(=O)c2sc(=S)n(C)c2N)cc1 | -8%
COC(=O)c1ccc(CSc2nnc3sc4ccccc4n23)o1 | 8%
CC(=O)OC(C(=O)NCc1ccco1)c1cccnc1 (stereo unspecified) | -1%
O=C(CC1CCCCC1)NCc1cn2ccsc2n1 | 9%
Cc1ccc2cc(CN(Cc3ccco3)C(=O)c3ccccc3)c(=O)[nH]c2c1C | 14%
CCN(CC)CCOCCOC(=O)C1(c2ccccc2)CCCC1 | 28%
O=C(Nc1ccc(-n2nncc2-c2ccco2)cc1)c1ccc(F)cc1 | -18%
CCOC(=O)CNS(=O)(=O)CCN1C(=O)c2ccccc2C1=O | -7%
Cn1c(=O)cc(OCC(=O)NCc2ccccn2)c2ccccc21 | -9%
CCOC(=O)c1[nH]c(COC(=O)C2CC(=O)N(Cc3ccccc3)C2)c(C(=O)OCC)c1C (stereo unspecified) | 108%
CCS(=O)(=O)c1ccc2oc(SCC(=O)c3ccco3)nc2c1 | 12%
Cc1ccccc1-c1nc(CN2CCCC(C(=O)NCc3cccnc3)C2)c(C)o1 (stereo unspecified) | 68%
NC(=O)c1ccc(OCC(F)(F)C(F)(F)C(F)(F)C(F)(F)C(F)(F)C(F)F)cc1 | 23%
CC1CCCC(NC(=O)c2cn(C)c3ccc(S(=O)(=O)N4CCCC4)cc3c2=O)C1C (stereo unspecified) | 104%
O=c1[nH]c(C2CCCN(S(=O)(=O)c3ccccc3)C2)nc2c1nnn2Cc1ccccc1F (stereo unspecified) | -7%
O=C(NC1CCCCC1)NC1CCN(S(=O)(=O)c2ccc3c(c2)OCCO3)CC1 | 10µM*[single pt active]
(cont.)
SMILES | AmpC nodet inh
Cc1occc1-c1nnc(SCC(=O)c2ccc(F)cc2)o1 | 16%
O=S(=O)(c1cccc(S(=O)(=O)N2CCN(c3ncccn3)CC2)c1)N1CCOCC1 | 46%
COc1ccc2[nH]c(=O)c(CN(C3CCCCC3)C(c3nnnn3Cc3ccco3)C(C)C)cc2c1 (stereo unspecified) | -24%
CCc1ccc2[nH]c(=O)c(C(c3nnnn3CCOC)N3CCN(c4ccccc4)CC3)cc2c1 (stereo unspecified) | 138%
NC(=O)C1CCN(c2oc(-c3ccccc3F)nc2S(=O)(=O)c2ccc(Cl)cc2)CC1 | 89%
CC(=O)c1c(C)nn(CC(O)COc2ccc3c(c2)CCC3)c1C (stereo unspecified) | 64%
Cc1ccccc1OCCn1nc(C(=O)O)c2ccccc2c1=O | 24%
COc1ccc(-n2nnc3c(=O)n(CC(=O)NCC4CCCO4)cnc32)cc1 (stereo unspecified) | 0%
COc1ccc(NC(=O)c2c(-c3ccccc3)noc2C)c(OC)c1 | 25%
CCOc1ncccc1C(=O)OCC(=O)N1CCN(S(=O)(=O)c2ccccc2)CC1 | 36%

Next section; the last 2 above are carried over.
SMILES | AmpC nodet inh
COc1ccc(NC(=O)c2c(-c3ccccc3)noc2C)c(OC)c1 | 25%
CCOc1ncccc1C(=O)OCC(=O)N1CCN(S(=O)(=O)c2ccccc2)CC1 | 36%
Cn1c(=O)c2c(nc(CN3CCOCC3)n2CCN2CCOCC2)n(C)c1=O | -2%
CC(C)CCNC(=O)NC(=O)CN1C(=O)NC2(CCCCC2)C1=O | 29%
CCn1c2ccccc2c2cc(NC(=O)CCCN3C(=O)CCC3=O)ccc21 | 124%
Cc1cc(C)n(-c2nc3ccccc3nc2Nc2ccc(CC(=O)O)cc2)n1 | 37%
CCN(CC)c1nc(N)c2c(N)n(-c3ccccc3C)c(=S)c(C#N)c2c1C#N | -10%
CC(C)OP(=O)(c1ccc(N(C)C)cc1)C(O)c1ccccc1F (stereo unspecified) | 50%
CCOC(=O)CCC(=O)N1CCOCCN(C(=O)CCC(=O)OCC)CCOCC1 | 15%
CC(=O)N1CCC2(CCCN(Cc3cc(C(F)(F)F)cc(C(F)(F)F)c3)C2)CC1 | 117%
CC(C(=O)N1CCc2ccccc21)N1CCc2ccccc2C1 (stereo unspecified) | 32%
CCCC=O | -5%
CN(C)C(=O)Oc1ccc(-c2nnco2)cc1 | -4%
Cc1cc2cc(CNC(=O)c3cc4ccccc4o3)ccc2n1C | 4%
Cc1ccc(C(=O)CCNc2ccccc2)o1 | 0%
CN(C(=O)C1CCOC1)c1nnc(-c2ccncc2)s1 (stereo unspecified) | -3%
N#Cc1cn(CC(=O)NCC2CCCO2)c2ccccc12 (stereo unspecified) | 11%
Cc1nn(-c2ccccc2)c(CC(C)(C)C(=O)O)c1C(=O)O | 1%
COc1cc(C2N(c3ccc(Cl)c(Cl)c3)C(=O)C3CCCN32)cc(OC)c1OC (stereo unspecified) | 118%
COc1cc2c(C(=O)N3CCCc4ccccc43)cn(C)c(=O)c2cc1OC | 50%
CCN1CCN(Cc2ccc(C)cc2)CC1 | -4%
CCOC(=O)c1c(NC(=O)CCC(=O)NCc2ccco2)sc2c1CCCC2 | 102%
OCCN1CCN(c2ncnc3c2sc2nc(N4CCOCC4)c4c(c23)CCC4)CC1 | 43%
COc1ccc(S(=O)(=O)N(CC(=O)NCc2ccco2)C2CCCCC2)cc1OC | 39%
CCOC(=O)Cc1nnn(CC(=O)OCC)n1 | -3%
N#C/C(C(=O)c1ccccc1)=C1/CCCCCN1 | 2%
C/C=C/C=C/C(=O)O | 0%
CCCCOCCCNC(=O)C1CCCCC1 | 25%
CC(=O)Oc1ccc(NC(=O)C2CCCCC2)c(C(=O)O)c1 | -13%
CN1CC[C@@]2(CCCN(C(=O)c3csnn3)C2)C1 | 35%
Cc1cc2c(c(=O)n1CC1CCCO1)C(c1ccco1)C(C#N)=C(N)O2 (stereo unspecified) | -9%
O=C(NCc1csc(-c2ccccc2)n1)c1ccco1 | 3%
COCCn1c(N)c(C(=O)Nc2sc3c(c2C(=O)OC)CCCC3)c2nc3ccccc3nc21 | 36%
O=c1c(-c2cccs2)nc2cncnc2n1C1CC1 | 2%
Cc1noc(C)c1CSc1nnc(-c2ccncc2)n1-c1cccc(Cl)c1C | 92%
Cn1ncc(C#N)c1/N=C/N(Cc1ccccc1)Cc1ccccc1 | 19%
Cc1cc(=O)n2nc(N3CCCC(C(=O)NCCC4=CCCCC4)C3)sc2n1 (stereo unspecified) | 51%
Cc1c(C(=O)O)oc2c1ccc1ccccc12 | -7%
O=C(Nc1nnc(C2CC2)s1)c1cccc(S(=O)(=O)N2CCc3ccccc32)c1 | 10µM*
O=C(Nc1ccccc1)N1C(=O)C2(OCCO2)c2ccccc21 | 6%
CC(=O)C1=C(C)NC(=O)NC1c1ccccc1 (stereo unspecified) | -1%
Brc1ccc(CSc2nnc(-c3ccccn3)n2Cc2ccco2)cc1 | 15%
CCOC(=O)Cn1c(=O)oc2cc(S(=O)(=O)Nc3c(C)cc(C)cc3C)ccc21 | 15%
O=C(CCN1CCN(CCC(=O)c2ccccc2)CC1)c1ccccc1 | 11%
COc1ccc(N(Cc2cc3ccc(C)cc3[nH]c2=O)C(=O)c2ccco2)cc1 | 24%
Cc1nc2cc(-c3ccc(F)cc3)nn2c(N2CCOCC2)c1C | 14%
CN(C)S(=O)(=O)Nc1ccccc1C(N)=O | -3%
CN(C)C(=O)[C@@H]1C[C@H]1[C@@H](NC(=O)OCc1ccccc1)c1ccccc1 | 62%
Cc1ccc(Nc2nc(N)nc(CSc3nnnn3-c3ccccc3)n2)cc1 | -4%
COc1ccc2c(c1OC)C(=O)O[C@@H]2[C@H]1c2cc3c(cc2CCN1C)OCO3 | 13%
CC(C)(C)NC(=O)CC(CC(=O)O)c1ccccc1 (stereo unspecified) | 3%
Cn1c(=O)c2c(nc(Sc3n[nH]c(N)n3)n2Cc2ccccc2Cl)n(C)c1=O | 4%
Next records
SMILES | AmpC nodet inh
O=C(O)[C@H]1O[C@H]1C(=O)O | -6%[5.75 µM]
C=CCSC1=C(C#N)C(c2ccccc2Cl)CC(=O)N1 (stereo unspecified) | -10%
Cn1nc(-c2ccc(Cl)cc2)c2cc(C(=O)NCc3ccco3)sc21 | 3.2µM*
C/C(Cl)=C\Cn1c(Nc2ccc(C)cc2)nc2c1c(=O)n(C)c(=O)n2C | 52%
Cc1cc(F)c(F)c(C(=O)NC2CC2)c1Cl | -9%
N#Cc1ccccc1NC(=O)CSc1nnc(-c2ccccc2O)n1-c1ccccc1 | 1%
O=C(c1csc2ccccc12)n1cccn1 | -7%
N#Cc1c(N)nc2c(c1-c1ccc3c(c1)OCO3)CCCCCC2 | 8%
O=C(Cn1c(=O)sc2ccccc21)Nc1ccc2c(c1)OCCO2 | -7%
CN(N=O)c1cc(O)ccc1O | -2%
CCOc1cccc(=O)c2c(C)n(CC3CCCO3)c(C)c12 (stereo unspecified) | 26%
Cc1ccc(C)n1-c1ccc(N2CCOCC2)cc1 | 109%
CCCCOc1ccc(S(=O)(=O)Nc2cccnc2)cc1 | 2%
Cc1ccc(OCc2nnc(SCC(=O)C(C)(C)C)n2Cc2ccco2)cc1 | 97%
Cc1csc2nc(CNC(=O)C3CCCCC3)cn12 | 16%
Cc1ccc(OS(=O)Nc2cccc3nccnc23)cc1 (stereo unspecified) | 5%
CSc1nnc2c(n1)OC(c1cccn1C)N(C(C)=O)c1ccccc1-2 (stereo unspecified) | 10%

Reformatted tab-delimited: part of the list above
mol	AmpC nodet inh
Cn1c(=O)c2c(nc(Sc3n[nH]c(N)n3)n2Cc2ccccc2Cl)n(C)c1=O	4%
O=C(O)[C@H]1O[C@H]1C(=O)O	-6%[5.75 µM]
C=CCSC1=C(C#N)C(c2ccccc2Cl)CC(=O)N1 (stereo unspecified)	-10%
Cn1nc(-c2ccc(Cl)cc2)c2cc(C(=O)NCc3ccco3)sc21	3.2µM*
C/C(Cl)=C\Cn1c(Nc2ccc(C)cc2)nc2c1c(=O)n(C)c(=O)n2C	52%
Cc1cc(F)c(F)c(C(=O)NC2CC2)c1Cl	-9%
N#Cc1ccccc1NC(=O)CSc1nnc(-c2ccccc2O)n1-c1ccccc1	1%
O=C(c1csc2ccccc12)n1cccn1	-7%
N#Cc1c(N)nc2c(c1-c1ccc3c(c1)OCO3)CCCCCC2	8%
O=C(Cn1c(=O)sc2ccccc21)Nc1ccc2c(c1)OCCO2	-7%
CN(N=O)c1cc(O)ccc1O	-2%
CCOc1cccc(=O)c2c(C)n(CC3CCCO3)c(C)c12 (stereo unspecified)	26%
Cc1ccc(C)n1-c1ccc(N2CCOCC2)cc1	109%
CCCCOc1ccc(S(=O)(=O)Nc2cccnc2)cc1	2%
Cc1ccc(OCc2nnc(SCC(=O)C(C)(C)C)n2Cc2ccco2)cc1	97%
Cc1csc2nc(CNC(=O)C3CCCCC3)cn12	16%
Cc1ccc(OS(=O)Nc2cccc3nccnc23)cc1 (stereo unspecified)	5%
CSc1nnc2c(n1)OC(c1cccn1C)N(C(C)=O)c1ccccc1-2 (stereo unspecified)	10%

The list is partial (hit frequency here may not be typical).
